# Screening results (PubChem BioAssay)
# Calb FLC – affects C. albicans growth with fluconazole. C. albicans CaCi-2 (fluconazole-resistant clinical isolate) + fluconazole, Alamar Blue growth, 48 h. growth inhibition, % (no concentration beside the values). hit rate 0.57% among 300,000;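 active means most replicates above 75%; inconclusive means exactly half above 75%; inactive means most below 75%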;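 further: all wells also contain fluconazole at 8 µg/ml as a sub-toxic cotreatment; 0% = median of DMSO wells and 100% = median of geldanamycin control wells; wells of about 8 µL received 7.5 nL stock; the first replicate is given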
# Beta cell apopt – beta cell apoptosis inhibition; protection from apoptosis, % (no concentration beside the values); AID 435005; hit rate 0.8% among 300,000; INS-1E cytokine-induced death, ATP luminescence, 48 h; percent of positive-control rescue, neutral wells zero;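 active means all replicates at 75% or more, or half of them and the mean; inconclusive means half reach 75% but not the mean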;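 further: 0% = cytokine-treated negative control wells and 100% = positive control rescue; higher means more ATP so stronger rescue from cytokine killing; wells of about 40 µL received 100 nL stock; the first replicate is given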
# rRNA inh HTS – inhibitors of bacterial rRNA selective over humanized ribosomes | E. coli WT GFP vs humanized-ribosome RFP mutants, fluorescence, 24 h; active compounds read low; DMSO median 0, no signal -100 | GFP signal change (wild-type ribosome), % (test concentration not listed) | hit rate 1.6% among 350,000 | AID 720706;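 active means significant combined selectivity score with lowered wild-type GFP, culture density cut under 30%, mutant RFP and density less affected; inactive means any of these conditions unmet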; further: one replicate is shown; some compounds called inactive have numbers as strong as hits
# FGF22 binding – FGF22 (human) thermal shift binding | Q9HCT0 | recombinant FGF22 thermal shift, SYPRO orange fluorescence; percent of sucrose octasulfate shift, DMSO zero | calls only at 9.99 µM | hit rate 1.5% among 340,000 | AID 651658;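 active means melting point raised past a set limit in the mean and every replicate; inconclusive means no clear call; three in four hits are not shown here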
# Target sequence (Q9HCT0 whole entry, looked up): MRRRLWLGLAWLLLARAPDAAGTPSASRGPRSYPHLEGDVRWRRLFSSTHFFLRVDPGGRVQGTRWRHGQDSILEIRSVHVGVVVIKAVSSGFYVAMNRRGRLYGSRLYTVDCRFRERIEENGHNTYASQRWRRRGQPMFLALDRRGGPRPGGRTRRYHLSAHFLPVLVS
# MLL AF4-AF9 inh – blocks AF4 peptide binding to human AF9; P42568; AlphaScreen, biotin-AF4 peptide binding to FLAG-AF9; inhibition, % at 10 µM; hit rate 0.47% among 350,000;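 active means every replicate reaching a set inhibition limit, whatever the replicate mean, cut at about 25% in these data; inconclusive means mean inhibition reaches that limit but some replicates miss it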;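 further: 0% = plate neutral control median and 100% = total signal loss; the record names both 10 and 1 µM as test concentration; the first replicate is given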
# ALR H2O2 inh – blocks human ALR sulfhydryl oxidase activity; P55789; purified ALR, DTT oxidation, H2O2 HRP-luminol luminescence; inhibition, % (test concentration not listed); hit rate 3.8% among 290,000;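 active means mean and each replicate at 75% or more; inconclusive means only one of the two met; inactive means neither met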;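 further: stock transfer was 7.5 nL into about 7.5 µL; 0% = neutral wells and 100% = wells with inactivated enzyme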
# Target sequence (P55789 whole entry, looked up): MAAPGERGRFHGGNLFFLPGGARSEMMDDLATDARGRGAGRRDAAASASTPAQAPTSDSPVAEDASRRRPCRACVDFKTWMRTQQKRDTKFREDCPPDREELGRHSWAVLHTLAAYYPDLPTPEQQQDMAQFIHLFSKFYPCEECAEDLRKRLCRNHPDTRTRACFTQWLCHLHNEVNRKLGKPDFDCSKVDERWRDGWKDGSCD
# RanGTP-Imp inh – disruptors of Ran-importin-beta complex formation – biochemical, FRET, CFP-Ran, YFP-importin-beta, homogeneous, primary screen; inhibition, % (no concentration beside the values); cell-free CFP-Ran/YFP-importin-beta FRET ratio; AID 2216; hit rate 1.1% among 300,000;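 active means most replicates above 15%; inconclusive means exactly half above 15%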;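 further: 0% = DMSO wells and 100% = Ran loaded with GDP instead of GTP; wells of about 40 µL received 100 nL stock; the first replicate is given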
# T cruzi inh – blocks replication of Trypanosoma cruzi. T. cruzi beta-gal in NIH3T3, luminescence, 90 h. inhibition, % (concentration not given with the values). hit rate 1.4% among 300,000;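 active means mean inhibition across valid replicates above about 55%, limit read from the data; inconclusive means mean below that limit but half or more replicates reach it; inactive means mean below it, under half of replicates reach it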;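 further: signal also drops with host cell toxicity which is not excluded here; 0% = plate median of DMSO wells and 100% = zero luminescence signal; higher percent means less beta-gal luminescence so fewer parasites; stock transfer was 50 nL into about 50 µL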
# rRNA inh HTS OD600 – second read-out of rRNA inh HTS, no call of its own (marks repeat the call); OD600 change, %; measured here: OD600 growth;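 optical density of the mix in the first replicate; 0 = DMSO median and -100 = no signal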
# rRNA inh HTS RFP – also measured in rRNA inh HTS; calls as there; RFP signal change, %; measured here: RFP humanized mutant strains;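 first replicate; 0 = DMSO median and -100 = no signal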
# Starred values were filed as active, the others as inactive; i = inactive; u = inconclusive; x = no result given. The list is partial; count on the stated rates, not on these rows.
no.	Compound	Calb FLC	Beta cell apopt	rRNA inh HTS	rRNA inh HTS OD600	rRNA inh HTS RFP	FGF22 binding	MLL AF4-AF9 inh	ALR H2O2 inh	RanGTP-Imp inh	T cruzi inh
1	Cc1c(Cl)cccc1N1CC(C(=O)Nc2nccs2)CC1=O (stereo not drawn)	-1	-10	x	x	x	x	x	-36	-4.5	11
2	CC(c1ccccc1)n1cc(C(=O)NCCN2CCOCC2)nn1 (stereo not drawn)	-6	3	x	x	x	x	x	2	3.2	1
3	CCC(CC)C(=O)Nc1cccc(C(=O)N2CCOCC2)c1	-4	x	12	3	-7.1	i	4.3	0	-2.5	-19
4	COC(=O)c1cc(=O)nc2scc(C)n12	-13	-2	3	7	-1.3	i	5.3	-15	-5.5	-1
5	COc1ccc2oc(N)c(C=O)c(=O)c2c1	7	10	10	4	-0.6	i	10.0	-3	2.3	5
6	COc1ccc(CN2CCC(n3nccc3NC(=O)C3CCCC3)CC2)c(OC)c1	-10	-2	15	7	1.8	i	5.5	-11	2.4	21
7	C=CCN1C(=O)C(Cc2ccc(OC)cc2)SC1=Nc1ccc(C(=O)O)cc1 (stereo not drawn)	1	4	-11	-7	-14	i	1.1	-3	-0.8	-22
8	CCCCNCc1cc(Br)c(OCC(=O)NCc2ccccc2)c(OC)c1	6	2	5	-19	-2.7	i	2.6	-3	-1.9	21

# A different layout for part of the listing above:
# Order of values: Calb FLC, Beta cell apopt, rRNA inh HTS, rRNA inh HTS OD600, rRNA inh HTS RFP, FGF22 binding, MLL AF4-AF9 inh, ALR H2O2 inh, RanGTP-Imp inh, T cruzi inh
[6] COc1ccc(CN2CCC(n3nccc3NC(=O)C3CCCC3)CC2)c(OC)c1
  -10, -2, 15, 7, 1.8, i, 5.5, -11, 2.4, 21
[7] C=CCN1C(=O)C(Cc2ccc(OC)cc2)SC1=Nc1ccc(C(=O)O)cc1 (stereo not drawn)
  1, 4, -11, -7, -14, i, 1.1, -3, -0.8, -22

# Entries of single compounds from above.
# CCCCNCc1cc(Br)c(OCC(=O)NCc2ccccc2)c(OC)c1 across the screens: Calb FLC: 6; Beta cell apopt: 2; rRNA inh HTS: 5; rRNA inh HTS OD600: -19; rRNA inh HTS RFP: -2.7; FGF22 binding: i; MLL AF4-AF9 inh: 2.6; ALR H2O2 inh: -3; RanGTP-Imp inh: -1.9; T cruzi inh: 21
# CCC(CC)C(=O)Nc1cccc(C(=O)N2CCOCC2)c1 across the screens: Calb FLC: -4; Beta cell apopt: x; rRNA inh HTS: 12; rRNA inh HTS OD600: 3; rRNA inh HTS RFP: -7.1; FGF22 binding: i; MLL AF4-AF9 inh: 4.3; ALR H2O2 inh: 0; RanGTP-Imp inh: -2.5; T cruzi inh: -19

# More entries follow:
no.	Compound	Calb FLC	Beta cell apopt	rRNA inh HTS	rRNA inh HTS OD600	rRNA inh HTS RFP	FGF22 binding	MLL AF4-AF9 inh	ALR H2O2 inh	RanGTP-Imp inh	T cruzi inh
9	O=C(NCc1ccc2c(c1)OCO2)C(=S)N1CCOCC1	-2	-10	12	15	-0.9	i	0.4	-1	0.0	-4
10	CCOC(=O)N1CCC(NC(=O)C2CCN(S(=O)(=O)c3c(C)noc3C)CC2)CC1	1	2	x	x	x	x	x	-3	-1.6	3
11	COc1ccc(OC)c(NC(=O)[C@@H]2CCCN2C(=O)c2cccs2)c1	23	-3	x	x	x	x	x	-15	3.4	-12
12	Cc1cc(C)c2c(=O)[nH]c(SCC(=O)c3ccc(C(C)C)cc3)nc2n1	-10	0	-5	5	1.8	x	x	20	-1.8	1
13	CCOC(=O)c1c(NC(=O)c2noc(C)c2[N+](=O)[O-])sc(C(C)=O)c1C	-2	3	-2	0	-2.1	i	-2.6	10	8.5	14
14	Cc1ccc(S(=O)(=O)CCC(=O)Nc2sccc2C#N)cc1	24	-14	9	11	3.7	i	-7.2	-3	2.7	-15
15	CCOc1ccc(CNC(=O)C(C)n2nc(C)c3c(C)n(-c4ccccc4)nc3c2=O)cc1 (stereo not drawn)	-5	-3	3	1	1.7	i	1.2	x	-1.9	-9
16	COc1ccccc1N(C)S(=O)(=O)c1ccc(C(=O)OC(C)C(=O)NCc2ccc3c(c2)OCO3)cc1 (stereo not drawn)	-16	1	x	x	x	x	0.4	-28	0.4	0
17	Cc1ccc(S(=O)(=O)N2CCOCC2)c(C)c1-n1cnnn1	30	x	x	x	x	x	x	-7	1.4	15
18	Cc1[nH]c2ccc(C(=O)OC(C)C(=O)NCc3ccccc3)cc2c1C (stereo not drawn)	-1	-1	-26	-27	-6.4	i	-1.7	16	x	-6
19	Nc1nc(CSC(=S)N2CCOCC2)nc(Nc2ccc(F)cc2)n1	-5	-5	1	10	-3.8	i	2.8	-8	1.8	3
20	O=C(Nc1ccc(Cl)c(Cl)c1)C1C2C=CC3(O2)C1C(=O)N(CCN1CCCCC1)C3C(=O)NC1CCCCC1 (stereo not drawn)	-14	-5	3	-1	2.3	i	3.9	-5	5.0	9
21	CC(=O)NC(Cc1c[nH]c2ccccc12)C(=O)N1CCN(S(=O)(=O)c2ccccc2)CC1 (stereo not drawn)	x	-1	4	6	-0.9	i	0.5	-2	x	x
22	CC(C)C[C@H]1CN=C(N(C)C)N1CCCCc1ccccc1	x	10	-1	6	9.0	i	-4.3	-8	x	x
23	CC1CN=C(N(C(=O)Nc2ccccc2)c2ccc(S(=O)(=O)N3CCOCC3)cc2)S1 (stereo not drawn)	x	-1	x	x	x	x	x	8	-4.4	-12
24	O=C(COC(=O)c1cn(-c2ccccc2)nc1-c1cccnc1)NC1CC1	-17	-2	32	17	33	i	3.1	-14	-2.1	6
25	O=c1oc2ccccc2n1CCc1ccccc1	-23	x	x	x	x	x	x	-14	1.0	1
26	Cc1ccc(Nc2ncnc3sc(C)c(C)c23)cc1	-2	4	x	x	x	x	x	1	2.0	-35
27	CCOC(=O)N1CCN(CCC(=O)c2ccc(Cl)cc2)CC1	1	-13	x	x	x	x	x	22	-3.9	-26
28	CN(C(=O)CN1C(=O)/C(=C/c2ccc(Cl)cc2)SC1=S)C1CCS(=O)(=O)C1 (stereo not drawn)	-1	-16	16	11	0.3	i	1.2	-8	1.6	6
29	CN(C)S(=O)(=O)c1ccc2nnn(OCC(=O)NC3CCS(=O)(=O)C3)c2c1 (stereo not drawn)	x	-5	13	7	4.6	i	0.2	x	x	x
30	CNS(=O)(=O)c1cc(-c2nnc(Nc3ccc(CC(N)=O)cc3)c3ccccc23)ccc1C	-5	x	-41	-47	-5.5	i	0.8	-4	3.5	8
31	COc1ccc(NC(C)C(=O)N2CCN(Cc3ccccc3)CC2)cc1 (stereo not drawn)	4	4	1	-2	-2.3	i	1.1	56	-5.7	6
32	OCCNc1nc(N2CCN(Cc3ccccc3)CC2)nc2ccccc12	-27	1	x	x	x	x	x	-8	-4.4	42
33	COc1cccc(C(=O)Nc2cc(OC)ccc2NC(=O)c2ccco2)c1	0	2	-5	-10	1.9	i	-0.4	-1	0.3	-2
34	CCc1ccc(N2CC34C=CC(O3)C(C(=O)OC(C)C)C4C2=O)cc1 (stereo not drawn)	2	-5	6	7	-0.6	i	-1.9	1	6.8	-7
35	CC(C)Oc1cccc(C(=O)C2CCCN(Cc3cnc(N4CCCC4)s3)C2)c1 (stereo not drawn)	-41	0	-18	-17	-0.1	i	-1.2	-1	-2.1	82*
36	CCN(CC)c1ccc(C(=O)NNC(=O)c2ccc3c(=O)n4c(nc3c2)CCC4)cc1	x	5	3	5	0.6	i	-4.0	12	x	x
37	CCNc1nc(Nc2ccc(C)c(Cl)c2)c2cnn(C)c2n1	7	31	-17	4	9.1	i	3.3	x	1.7	-4
38	Cc1ccc(C(=O)Nc2cccnc2)cc1S(=O)(=O)N1CCCCC1	-5	-6	-14	-16	3.2	x	-9.7	-36	-0.1	5
39	O=C(CCC(=O)NNC(=O)COc1ccc(Br)cc1Br)NCc1ccccc1	6	-5	10	26	-0.2	i	-28	8	-1.3	-2
40	NS(=O)(=O)c1ccc(CNC(=O)/C=C/c2ccc(Cl)c(Cl)c2)cc1	-6	-3	7	-8	-3.5	i	-0.6	-6	u	4
41	CCOC(=O)C[C@H]1c2ccccc2S(=O)(=O)N1c1cccc(OC)c1	5	x	4	7	-4.1	i	2.3	1	-0.2	-3
42	CC(OC(=O)c1ccccc1)C(=O)NCc1ccco1 (stereo not drawn)	x	-2	6	-2	0.9	i	-1.8	0	x	x
43	CCOC(=O)c1ccc2c(c1)NC(=O)C(N1CCN(c3ccc(OC)cc3)CC1)S2 (stereo not drawn)	-14	1	1	3	-0.7	i	0.0	5	0.2	-10
44	CN(C)C(=O)CN1C(=O)NC(c2ccccc2)(c2ccccc2)C1=O	-3	-5	0	4	4.6	i	-6.9	x	10	-8
